# High-throughput results as filed in PubChem.
# Beta cell apopt – beta cell apoptosis inhibition; INS-1E cytokine-induced death, ATP luminescence, 48 h; percent of positive-control rescue, neutral wells zero; protection from apoptosis, % (no concentration beside the values); AID 435005; hit rate 0.8% among 300,000;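 active = all replicates at 75% or more, or half of them and the mean; inconclusive = half reach 75% but not the mean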;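 also: 0% = cytokine-treated negative control wells and 100% = positive control rescue; higher means more ATP so stronger rescue from cytokine killing; wells of about 40 µL received 100 nL stock; the first replicate is given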
# Ecoli rRNA inh – selective bacterial rRNA inhibition in E. coli; GFP signal change (wild-type ribosome), % (no concentration beside the values); AID 720706; hit rate 1.6% among 350,000; E. coli WT GFP vs humanized-ribosome RFP mutants, fluorescence, 24 h; active compounds read low; DMSO median 0, no signal -100;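 active = significant combined selectivity score with lowered wild-type GFP, culture density cut under 30%, mutant RFP and density less affected; inactive = any of these conditions unmet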; also: one replicate is shown; some compounds called inactive have numbers as strong as hits
# A1 inh – inhibitors of the anti-apoptotic protein A1, read as caspase activation. MEF A1-2A-BIM cells, Caspase-Glo 3/7 luminescence, 3 h; percent of clofoctol response, vehicle zero. caspase activation, % (concentration not given with the values). hit rate 0.066% among 330,000;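 active = over half of replicate activation scores above 10%, or exactly half above 10 with the replicate mean above 10; inconclusive = replicate mean below 10 yet half the replicates above 10; inactive = over half of replicates below 10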;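 also: wells of about 30 µL received 50 nL stock; many hits fall short of the cut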
# ALR inh – human ALR oxidase inhibition via reduced H2O2. P55789. purified ALR, DTT oxidation, H2O2 HRP-luminol luminescence. inhibition, % (no concentration beside the values). hit rate 3.8% among 290,000;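 active = mean and each replicate at 75% or more; inconclusive = only one of the two met; inactive = neither met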;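 also: stock transfer was 7.5 nL into about 7.5 µL; 0% = neutral wells and 100% = wells with inactivated enzyme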
# Target sequence (P55789 whole entry, looked up): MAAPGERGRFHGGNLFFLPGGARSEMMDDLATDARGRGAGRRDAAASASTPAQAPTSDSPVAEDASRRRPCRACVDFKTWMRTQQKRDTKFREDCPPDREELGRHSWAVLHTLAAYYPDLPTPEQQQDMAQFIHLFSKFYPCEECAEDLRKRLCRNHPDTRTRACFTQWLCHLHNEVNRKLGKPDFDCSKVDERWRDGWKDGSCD
# LANA-H2B inh – blocks KSHV LANA binding to histone H2A/H2B; inhibition, % (concentration not given with the values); hit rate 0.6% among 320,000; Q9QR71; AID 2629; cell-free LANA-H2A/H2B peptide, fluorescence polarization; in the data active = inhibition mostly above about 10%, no sharp cut-off; inactive = mostly below about 6.7%;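 also: stock transfer was 7.5 nL into about 10 µL; 0% = median of vehicle wells and 100% = median of positive control wells; one replicate is shown; the record names a cut of 25% in any replicate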
# Calb FLC – affects C. albicans growth with fluconazole. C. albicans CaCi-2 (fluconazole-resistant clinical isolate) + fluconazole, Alamar Blue growth, 48 h. growth inhibition, % (test concentration not listed). hit rate 0.57% among 300,000;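 active = most replicates above 75%; inconclusive = exactly half above 75%; inactive = most below 75%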;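 also: all wells also contain fluconazole at 8 µg/ml as a sub-toxic cotreatment; 0% = median of DMSO wells and 100% = median of geldanamycin control wells; wells of about 8 µL received 7.5 nL stock; the first replicate is given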
# T cruzi inh – blocks replication of Trypanosoma cruzi; T. cruzi beta-gal in NIH3T3, luminescence, 90 h; inhibition, % (concentration not given with the values); hit rate 1.4% among 300,000;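 active = mean inhibition across valid replicates above about 55%, limit read from the data; inconclusive = mean below that limit but half or more replicates reach it; inactive = mean below it, under half of replicates reach it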;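 also: signal also drops with host cell toxicity which is not excluded here; 0% = plate median of DMSO wells and 100% = zero luminescence signal; higher percent means less beta-gal luminescence so fewer parasites; stock transfer was 50 nL into about 50 µL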
# B2AR ag – activates human beta-2 adrenergic receptor causing internalization | Am2.2-beta2AR cells, FAP receptor internalization, flow cytometry; reference of the scale not given here | response, % (no concentration beside the values) | hit rate 0.43% among 340,000 | AID 504454;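 active = response above a set limit, near 3 SD of response in nonfluorescent compounds, cut at about 42% in these data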;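 also: stock transfer was 100 nL into about 11 µL; a reference agonist was the positive control; negative values mostly stem from fluorescent compounds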
# Target sequence (P07550 whole entry, looked up): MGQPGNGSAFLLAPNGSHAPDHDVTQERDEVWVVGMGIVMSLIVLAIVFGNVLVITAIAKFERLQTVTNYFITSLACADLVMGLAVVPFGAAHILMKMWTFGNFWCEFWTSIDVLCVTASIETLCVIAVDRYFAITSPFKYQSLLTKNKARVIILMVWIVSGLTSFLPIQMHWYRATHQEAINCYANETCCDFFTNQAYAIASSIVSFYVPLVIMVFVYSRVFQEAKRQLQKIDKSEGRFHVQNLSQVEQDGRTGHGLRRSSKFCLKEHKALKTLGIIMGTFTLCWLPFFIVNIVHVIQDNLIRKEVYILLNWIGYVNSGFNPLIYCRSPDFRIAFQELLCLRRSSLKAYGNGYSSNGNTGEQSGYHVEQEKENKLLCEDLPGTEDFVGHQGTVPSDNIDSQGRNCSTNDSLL
# Ecoli rRNA inh OD600 – further read-out of Ecoli rRNA inh, marked with its call; OD600 change, %; measured here: OD600 growth;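 optical density of the mix in the first replicate; 0 = DMSO median and -100 = no signal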
# Ecoli rRNA inh RFP – second read-out of Ecoli rRNA inh, no call of its own (marks repeat the call); RFP signal change, %; measured here: RFP humanized mutant strains;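 first replicate; 0 = DMSO median and -100 = no signal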
# Numbers without * were called inactive; ? = inconclusive; / = not tested or not shown; & = joins results of further samples.
SMILES,Beta cell apopt,Ecoli rRNA inh,Ecoli rRNA inh OD600,Ecoli rRNA inh RFP,A1 inh,ALR inh,LANA-H2B inh,Calb FLC,T cruzi inh,B2AR ag
CC(=O)c1ccc(OC(=O)c2ccc(Br)o2)cc1,3,/,/,/,0.4,2,-1.1,-5,0,3
Cc1cccc(N2C(=O)c3cccc(Oc4ccc(Cl)cc4)c3C2=O)c1,0,-4,13,-2.7,0.0,-14,-4.1,16,0,-8
CC1CCCN(S(=O)(=O)c2ccccc2[N+](=O)[O-])C1 (centres undefined),0,/,/,/,0.4,-6,-6.8,-2,3,16
CCN(CC(=O)Nc1ccc2c(c1)OCCO2)C(=O)CCOc1ccccc1,-3,10,3,3.1,0.6,/,2.2,/,/,-5
CC1=C(C)CC(C(=O)Nc2ccc(C(N)=O)cc2)C(C(=O)O)C1 (centres undefined),-12,/,/,/,0.5,/,0.6,4,-12,7
NNC(=O)c1[nH]c2ccc(Br)cc2c1-c1ccccc1,-11,-26*,-20*,-1.7*,0.3,1,-0.1,22,-4,7
Cc1ccc(NC(=O)C2CCCN2S(=O)(=O)c2ccc(F)cc2)c(C)c1 (centres undefined),-3,/,/,/,0.9,2,3.8,-2,6,3
Cc1ccc(C(=O)NCCC(=O)N2CCOCC2)cc1,-5,0,11,0.7,0.8,3,-7.9,-1,-16,0
COC(=O)c1ccc(NC(=O)c2c(C(=O)Nc3ccccc3)sc3nc(C)cc(=O)n23)cc1,-3,/,/,/,-0.2,-4,1.6,-9,-1,-5
CCCCN(C(=O)NC(=O)Nc1ccccc1OCC)S(C)(=O)=O,-5,/,/,/,-0.4,-20,-6.9,1,-6,2
C=CCn1c(SCC(=O)Nc2cccnc2Cl)nnc1-c1ccc(C(C)(C)C)cc1,-5,/,/,/,0.0,-5,0.1,2,-2,-5
CN1CCN(S(=O)(=O)c2ccc(Br)s2)CC1,-10,/,/,/,-0.6,-9,-0.9,-11,2,-3
CC(Nc1nc(-c2ccc3c(c2)NC(=O)CO3)cs1)c1ccccc1 (centres undefined),-4,-28,-42,-4.4,0.0,98*,2.4,-19,-22,4
N#C/C(=N\Nc1ccc(F)cc1)C(=N)N1CCCCC1,2,/,/,/,0.2,64,-0.5,-12,2,2
CC(=O)[C@@]12O[C@@H]1C[C@H]1[C@@H]3CC[C@H]4C[C@@H](O)CC[C@]4(C)[C@H]3CC[C@@]12C,1,0,-2,1.7,0.0,-9,7.0,2,9,-18
CCOC(=O)c1c(C)c(C(=O)NCC2CCCO2)c(C)n1CC (centres undefined),1,14,9,1.8,1.8,-2,-2.7,2,-17,7
O=C(c1ccccc1Cl)N1CCC(N2CCC(C(=O)N3CCCC3)CC2)CC1,-6,4,7,0.1,-0.2,-3,-0.4,-3,-11,3
O=C(Nc1cccc2c1CCCC2)C1CCN(C(=O)NC2CCCCC2)CC1,/,/,/,/,-0.2,3,-3.1,?,8,-5
COc1ccc(NC(=O)CSc2nnc(CNC(=O)c3ccco3)o2)c(OC)c1,-16,/,/,/,-0.7,-10,0.9,-1,-7,-4
Cc1cc(NC(=O)CSc2nc3c(c(=O)n2CCc2ccccc2)SC(C)C3)no1 (centres undefined),-6,4,10,3.6,0.2,/,4.0,2,17,8

# Some of the entries so far, with bars between the fields:
molecule | Beta cell apopt | Ecoli rRNA inh | Ecoli rRNA inh OD600 | Ecoli rRNA inh RFP | A1 inh | ALR inh | LANA-H2B inh | Calb FLC | T cruzi inh | B2AR ag
Cc1ccc(NC(=O)C2CCCN2S(=O)(=O)c2ccc(F)cc2)c(C)c1 (centres undefined) | -3 | / | / | / | 0.9 | 2 | 3.8 | -2 | 6 | 3
Cc1ccc(C(=O)NCCC(=O)N2CCOCC2)cc1 | -5 | 0 | 11 | 0.7 | 0.8 | 3 | -7.9 | -1 | -16 | 0
COC(=O)c1ccc(NC(=O)c2c(C(=O)Nc3ccccc3)sc3nc(C)cc(=O)n23)cc1 | -3 | / | / | / | -0.2 | -4 | 1.6 | -9 | -1 | -5
CCCCN(C(=O)NC(=O)Nc1ccccc1OCC)S(C)(=O)=O | -5 | / | / | / | -0.4 | -20 | -6.9 | 1 | -6 | 2
C=CCn1c(SCC(=O)Nc2cccnc2Cl)nnc1-c1ccc(C(C)(C)C)cc1 | -5 | / | / | / | 0.0 | -5 | 0.1 | 2 | -2 | -5

# (next part)
SMILES,Beta cell apopt,Ecoli rRNA inh,Ecoli rRNA inh OD600,Ecoli rRNA inh RFP,A1 inh,ALR inh,LANA-H2B inh,Calb FLC,T cruzi inh,B2AR ag
CCOc1ccc2[nH]c3c(NCCC(C)C)ncnc3c2c1,14,-59,-84,-18,0.7,32,-1.3,10,?,17
O=C(NCc1ccco1)C1(c2ccc(Cl)cc2)CCCC1,-3,/,/,/,0.3,3,6.1,/,/,4
Cn1c(=O)c2c(nc(SCC(=O)O)n2Cc2cc3c(cc2Cl)OCO3)n(C)c1=O,-8,/,/,/,1.0,21,-1.0,12,-7,14
c1csc(-c2nc3ccccn3c2NC2CCCCC2)c1,4,-3,-12,-11,1.1,94*,4.1,-28,14,-4
Cc1ccc(N(CC(=O)NC2CCCCC2)C(=O)CCCC(=O)Nc2ccccn2)c(C)c1,3,4,1,-0.5,0.8,/,-8.1,-6,-9,0
CCc1ccccc1Cn1c(=O)oc2cccnc21,-8,2,0,-0.1,0.6,-8,-4.4,-2,-9,4
COc1ccccc1/C=C1\CCC(C2CCCC2)C1=O (centres undefined),1,-15,-15,0.6,0.0,-1,-2.4,-6,-12,4
COc1cc(OC)cc(C(=O)Nc2nc3ccc(S(C)(=O)=O)cc3s2)c1,14,-4,0,-3.0,-6.5,5,-0.6,-11,25,9
CCCc1cc(=O)oc2c(CNc3ccc(OCC)cc3)c(O)ccc12,-1,14,2,-2.2,0.4,-6,15,2,6,1
CCn1c(SCC(=O)NCCOC)nc2sc3c(c2c1=O)CCCC3,-6,/,/,/,2.1,-10,0.5,6,-2,-6
Cn1c(=O)c2c(nc(Br)n2C)n(C)c1=O,1,/,/,/,1.1,-9,-2.6,-5,-8,-3
CCOC(=O)c1c(NC(=O)c2ccc(S(=O)(=O)N(C)CC3CCCO3)cc2)sc2c1CC(C)(C)NC2(C)C (centres undefined),26,-1,12,2.2,-1.2,-12,-1.4,0,15,30
Cc1ccc(Nc2nc(N)c([N+](=O)[O-])c(N3CCCC(C)C3)n2)cc1C (centres undefined),33,/,/,/,-0.6,-3,3.7,51,9,-2
CCOc1ccc(NC(=O)CN2CCCC2c2cccs2)cc1S(=O)(=O)N1CCCC1 (centres undefined),-4,-8,-11,5.9,0.3,-4,-1.2,/,/,1
S=c1[nH]nc(-c2cc(-c3ccccc3)n[nH]2)n1/N=C/c1cccs1,6,3,-3,3.8,-0.1,/,-0.5,4,11,-1
CC(C)(C)n1nc(Cc2cccc3ccccc23)c2c(N)ncnc21,4,-24,-51,2.0,-0.6,-12,-2.5,-8,40,2
O=C(Nc1ccc(Cl)c(Cl)c1)Nc1ccc(N2CCCC2)c(S(=O)(=O)Nc2ccccc2Cl)c1,12,/,/,/,-0.7,-1,4.6,1,37,19
COc1ccc(-c2nc(N)n(C(=O)c3ccccc3)n2)cc1,/,7,4,-2.8,/,/,/,22,-3,-11
CC1CC(C)CN(CCCNC(=O)CCC(=O)N2CCOc3ccccc32)C1 (centres undefined),-5,7,4,-0.3,0.3,1,0.6,0,-7,12
O=C(CNC(=O)c1sc2ccccc2c1Cl)OCc1ccccc1,-8,-27,-28,-6.6,0.3,2,-3.3,4,-10,5
CCOC(=O)Cc1csc(N/N=C/c2ccc(Cl)cc2)n1,-4,-10,-10,-9.8,-0.1,-2,-0.4,55,14,4
Cc1cccc(NC(=O)COc2ccc(/C=N\n3cnnc3)cc2)c1,-8,4,8,-5.1,0.2,-2,-3.0,12,-17,-7
Cc1nc(N)c(C#N)c(-c2cccnc2)c1C,-17,/,/,/,0.7,/,-0.1,5,-11,2
COc1ccc(N2CCN(CCCNC(=O)c3cc4sccc4n3C)CC2)cc1,/,-14,-20,11,-0.7,/,3.6,3,31,-3
COCCCNC(=O)C1CC(=O)OC1c1ccc(OC)c(OC)c1 (centres undefined),3,/,/,/,0.1,-27,3.9,2,-7,0
Cc1ccccc1OCC(O)CN1CCN(c2ccc(Cl)cc2)CC1 (centres undefined),-2,-13,-49,3.4,-1.4,5,0.1,-2,-29,6
Cn1nc(-c2ccc(C(=O)Nc3cccnc3)cc2)c2ccccc2c1=O,-4,/,/,/,0.3,-14,-0.2,1,11,-4
CN(C)c1ccc(-c2cccc(C3CC=CC4C3C(=O)N(Cc3ccccc3)C4c3ccc4ccccc4c3)c2)cc1 (centres undefined),-4,19,9,-2.3,1.4,/,-4.9,-16,32,7
CCOC(=O)C1=C(Nc2ccccc2)CC(C)(O)C(C(=O)OCC)C1c1ccc(Cl)cc1 (centres undefined),2,-3&-7,-10&-12,-0.6&6.5,0.0,/,6.1,/,/,12&3
Cc1ccc(CCNC(=O)C2CCCN(c3ncnc4c3nc3n4CCCCC3)C2)cc1 (centres undefined),3,6,9,-2.0,2.4,-3,0.0,-3,11,-10
CC(Oc1ccc(Cl)cc1Cl)c1nc(-c2ccccn2)no1 (centres undefined),-10,/,/,/,0.4,6,1.1,0,14,-11
CC(C)CCNC(=O)C1CC(c2ccccc2C(F)(F)F)=NO1 (centres undefined),1,7,1,3.7,-0.4,2,-4.6,-2,-22,-12
Cc1noc(C)c1NC(=O)N(C)C[C@H]1Oc2c(NS(=O)(=O)c3cn(C)cn3)cccc2C(=O)N([C@H](C)CO)C[C@@H]1C,8,2&1,15&8,0.3&-1.0,-0.1,2,-4.5,/,/,-1
O=[N+]([O-])c1ccc(OCc2cnc(Cl)s2)c([N+](=O)[O-])c1,2,-11,2,4.9,1.2,/,-5.9,-9,7,-11
Cc1ccc(C(C)C)c(OCCNS(C)(=O)=O)c1,-4,/,/,/,1.0,-11,-3.5,-4,-6,0
CC(C)OC(=O)N(C)c1ccc(C(O)(C(F)(F)F)C(F)(F)F)cc1,/,/,/,/,0.7,0,-1.8,-1,15,-3
Cc1cccc(NC(=O)C2CCN(S(=O)(=O)c3c(C)[nH]c(=O)[nH]c3=O)CC2)c1,-3,/,/,/,-0.5,/,/,-2,-5,3

# Whole records, looked up by structure. Values in the order: Beta cell apopt, Ecoli rRNA inh, Ecoli rRNA inh OD600, Ecoli rRNA inh RFP, A1 inh, ALR inh, LANA-H2B inh, Calb FLC, T cruzi inh, B2AR ag
# Record of CC(C)CCNC(=O)C1CC(c2ccccc2C(F)(F)F)=NO1 (centres undefined) → 1, 7, 1, 3.7, -0.4, 2, -4.6, -2, -22, -12
# Record of Cn1nc(-c2ccc(C(=O)Nc3cccnc3)cc2)c2ccccc2c1=O → -4, /, /, /, 0.3, -14, -0.2, 1, 11, -4

# Only part of the results is shown (hit frequency here may not be typical).
